Source: PubChem BioAssay
BasE inh: BasE siderophore enzyme inhibitors, primary screen, biochemical, Acinetobacter baumannii ATCC 17978, fluorescence polarization. purified BasE, fluorescence polarization binding displacement. inhibition, % (concentration not given with the values). 84,000 compounds, 0.1% hits;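 active = both replicates above 25% with normal brightness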;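 note: 0% = negative plate control signal and 100% = positive plate control signal; stock transfer was 100 nL into about 30 µL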
LANA-nucl inh: inhibitors of KSHV LANA-nucleosome binding, primary screen, biochemical, fluorescence polarization, FITC-LANA1-23, chicken nucleosomes; FITC-LANA1-23 / chicken nucleosome fluorescence polarization; active compounds read low; z-score (no concentration beside the values); 51,000 compounds, 0.3% hits;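 active = both repeat wells score below -2 in polarization z-score versus plate sample wells, excluding overly bright wells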;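 note: 100 nL library stock added to about 30 µL; numbers are from one replicate; some results filed as inactive read as strong as hits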
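System – purified chicken nucleosomes with FITC-labelled LANA N-terminal peptide (1-23) · Amount – 240 nM purified chicken nucleosomes (480 nM peptide binding sites), final · Also added – 50 nM FITC-LANA1-23 probe · Medium – TEN-BT buffer, pH 7.5 · Incubation – compound with peptide–nucleosome mix 10–45 min at room temperature · Detection – fluorescence polarization, ex 480 nm, em 535 nm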
* = called active by the depositor; · = not tested or not shown; & = joins results of further samples.

SMILES	BasE inh	LANA-nucl inh
Cc1n[nH]c(=O)c2c(NC(=O)COC(=O)C3CC4CCCC(C3)C4=O)oc(C)c12 (configuration not stated)	2.7	·
CCOC(=O)c1ccc(Oc2nc(N(C)C)nc(N3CCOCC3)n2)cc1	0.5	0.109
CCOC(=O)c1cnc2c(S(=O)(=O)C(C)C)csc2c1Sc1ccc(Cl)cc1	-0.9	·
CC(C)(Oc1ccc(Cl)cc1)C(=O)Nc1cccc(-c2nn3cnnc3s2)c1	-1.4	0.709
O=C1CCSC2=C1CS(=O)(=O)c1ccc(Cl)cc12	2.1	0.868
COc1ccc(CCCOC(Cn2ccnc2)c2ccc(OC)cc2)cc1 (configuration not stated)	-1.5	-0.271
O=C(COC(=O)c1c2c(nc3ccccc13)CCCC2)c1ccco1	-2.0	·
CCc1ccc(N2C(=O)CSC23C(=O)N(C)c2ccccc23)cc1 (configuration not stated)	0.3	·
Cc1ccc(CC(=O)O)cc1C	1.6	·
O=C(OCc1ccccc1Cl)c1ccc2c(=O)n3c(nc2c1)CCC3	0.3	·
CNC(=O)Cc1nc2ccccc2[nH]1	-0.3	-0.502
CC1CCN(C(=O)c2ccc(S(=O)(=O)N(C)C)cc2)C(C)C1 (configuration not stated)	1.4	-0.191
Cc1ccc(S(=O)(=O)NC2CCCCC2)c2nsnc12	-1.3	1.85
COc1cccc(N2CCN(C(=O)c3nn(C)c4c3COc3ccccc3-4)CC2)c1	2.7	-2.28*
CC(C(=O)N1CCCCC1)N(c1ccccc1)S(C)(=O)=O (configuration not stated)	-0.3	-0.451
Cc1oc(-c2ccc(Cl)cc2)nc1CSc1nc2ccncc2[nH]1	1.1	-1.03
CC1CCC(C(C)C)C(OC(=O)CSc2nccc(=O)[nH]2)C1 (configuration not stated)	1.4	·
CCCCc1nnc(NC(=O)CSc2nc(O)c(NC(C)=O)c(=O)[nH]2)s1	-3.0	-1.14
CC(C)N1CC(O)=C(c2nc3ccccc3[nH]2)C1=N	2.0	·
O=C(CN1C(=O)CCC1=O)Nc1ccccc1-c1nc2ccccc2o1	-0.6	-1.09
COc1cc(S(=O)(=O)n2cnc3cc(C)c(C)cc32)ccc1Cl	0.0	-0.01
COc1ccc(/C=N/NC(=O)c2ccccc2)cc1OC	3.0	-0.856
CCN(CC(=O)NCc1cccs1)C(=O)c1ccc(S(=O)(=O)N2CCOCC2)cc1	1.2	·
Cc1ccc2c(CC(=O)N3CCSC3=Nc3ccccc3C)coc2c1	-2.2	·
CC1CC(C)CN(C(=O)C(C)n2sc3ccccc3c2=O)C1 (configuration not stated)	1.6	-1.06
CC(C)(CNC(=O)c1cc(Cl)c(O)c(Cl)c1)N1CCOCC1	0.9	·
CCCCn1nnnc1CSc1nc2cc(Cl)ccc2n1Cc1ccccc1	-3.6	·
CC(=O)n1c(/C=C2\C=c3cccc(C)c3=NC2=O)c(O)[nH]c1=S	-1.9	·
O=C(Nc1cnn(Cc2ccc(F)cc2)c1)c1cc(-c2ccc(Br)cc2)on1	20.6	-0.845
Cc1cc(NC(=O)CCC(=O)N(c2ccc(F)cc2)C2(C(=O)NC3CCCCC3)CCCC2)no1	0.4	0.049
C/C(=N/N=C1/NC(=O)CC(C(=O)O)S1)c1ccccc1 (configuration not stated)	3.2	1
CC(C)n1c(SCC(=O)C(C)(C)C)nc2cc(C(F)(F)F)ccc21	0.4	·
CC(C)N(CC(N)=O)c1ncnc2sc(-c3ccccc3)cc12	-5.3	·
O=C1c2ccccc2C(=O)N1CCSc1nnc(Cc2cccs2)n1CCc1ccccc1	-1.3	·
COc1ccc(Br)cc1-c1nc(COC(=O)c2ccc(C)o2)cs1	1.9	·
CC1=C(C#N)C(c2ccc(O)cc2)C2=C(CCCC2=O)N1 (configuration not stated)	-2.0	-0.828
COc1ccc(CCN2C(=O)CC(N3CCN(C)CC3)C2=O)cc1OC (configuration not stated)	2.0	·
c1ccc2c(c1)n1cnnc1c1nncn21	1.3	-0.37
O=c1[nH]c2ccccc2c2cn(-c3ccccc3)nc12	4.0	·
Cc1csc2c(N3CCN(C(=O)NC(C)(C)C)CC3)ncnc12	-0.1	·
CC(C)N1CCc2c(sc(N)c2C(N)=O)C1	9.4	·
Cc1noc(N)c1C(=O)OCc1ccc(COC(=O)c2c(C)noc2N)cc1	1.2	·
O=C(Nc1c2c(nn1-c1ccccc1)CS(=O)C2)c1ccccc1 (configuration not stated)	0.8	1.38
COc1ccccc1C(=O)Nc1cc(C)c(OCC(=O)N2CCOCC2)c(C)c1	-1.7	0.258
CCCCCCC1CC=C(C(=O)O)CC1 (configuration not stated)	2.2	-0.46
CN(Cc1ccccc1)C(=O)C1CCCN1S(=O)(=O)c1ccc2c(c1)CCCC(=O)N2 (configuration not stated)	0.8	·
COc1ccc(N=C2SCC(C(C)(C)C)=NN2C)cc1	5.7	0.177
COC(=O)c1ccc(CSc2ccc(S(=O)(=O)N3CCCC3)cn2)o1	-0.6	·
Cc1ccc2cc(NC(=O)C3CC(=O)N(CCc4ccc(Cl)cc4)C3)ccc2n1 (configuration not stated)	·	-1.27
CC(C)(C)C(=O)COC(=O)c1ccc2c(=O)n3c(nc2c1)CCCCC3	0.8	·
CN1CCOc2cc(S(=O)(=O)NC3CCCCNC3=O)ccc21 (configuration not stated)	-0.2	2.33
Cc1cc(C(=O)COC(=O)c2ccc(=O)n(Cc3ccccc3)n2)c(C)n1C1CC1	-0.2	·
COC(=O)/C(C#N)=C/c1cccc(Br)c1	0.1	-0.0895
CCOC(=O)c1nc(N2CCc3ccccc32)c2ccccc2n1	-2.7	0.513
CCOC(=O)C(C)C1(O)c2ccccc2-c2ncccc21 (configuration not stated)	-0.3	-0.342
COc1ccc(C2CC(c3ccccc3)n3ncnc3N2C(C)=O)cc1 (configuration not stated)	2.5	-0.55
CC(NC(=O)Cc1ccsc1)c1ccc(S(N)(=O)=O)cc1 (configuration not stated)	1.0	·
COc1cc(-c2nc(Nc3ccc(C)c(F)c3)c3ccccc3n2)cc(OC)c1OC	0.6	·
Cc1cccnc1NC(=O)c1ccc(S(=O)(=O)N2CCCCC2)cc1	-0.2	·
C[C@H](CCC(=O)NCC(=O)O)[C@H]1CC[C@H]2[C@@H]3[C@H](O)C[C@@H]4C[C@H](O)CC[C@]4(C)[C@H]3C[C@H](O)[C@]12C	1.6	-0.456

(more compounds)
SMILES	BasE inh	LANA-nucl inh
CO/N=C/C1=C(Sc2nc3ccccc3s2)CCCC1	0.8	·
CC(Sc1nc2c(n1-c1ccccc1)CCCC2)C(=O)Nc1ccc(S(N)(=O)=O)cc1 (configuration not stated)	-2.2	·
CCCc1[nH][nH]c(=O)c1C(c1ccc(Cl)cc1)C(C#N)C#N (configuration not stated)	-3.9	2.3
Cc1nc(SCC(=O)c2cn(CCC#N)c3ccccc23)n(C2CCCCC2)c1C	11.1	·
Cc1cc2c(C)nc3ccc(C(=O)O)cc3c2o1	0.7	-0.561
O=S(CCSc1nc2ccccc2s1)Cc1ccccc1 (configuration not stated)	-1.4	·
Cc1ccc(S(=O)(=O)N2c3cccc4cccc(c34)S2(=O)=O)cc1C	-0.1	·
CC(=O)N1N=C(c2ccco2)OC1c1ccc(-c2ccccc2)cc1 (configuration not stated)	0.0	-1
O=C(OCn1nnc2ccccc2c1=O)C1CC(=O)N(Cc2ccco2)C1 (configuration not stated)	0.6	·
N=c1n(CCO)c2ccccc2n1CCOc1ccc(Cl)cc1Cl	-7.3	·
CC1Oc2ccccc2N(CC(=O)NC2CCCC2)C1=O (configuration not stated)	0.3	1.02
Cc1cc(C)nc(NC2=NCCN2C(=O)Nc2ccc(Cl)c(Cl)c2)n1	1.8	·
O=C(CCS(=O)(=O)Cc1ccccc1)N1CCN(C(=O)c2ccco2)CC1	-0.7	0.782
CC(C)c1cc(C(=O)N2CC3(C)CC2CC(C)(C)C3)no1 (configuration not stated)	3.3	-1.06
COC(=O)c1c(=O)n(O)c2cc(Cl)c(Cl)cc2[n+]1[O-]	8.0	·
Cc1nn(CC(=O)NC2CCCC2)c(=O)c2cccn12	1.0	0.284
O=C(COC(=O)c1c2c(nc3ccccc13)CCCC2)NCc1ccco1	-0.2	·
COc1cc(/C=C/C(=O)OCc2c(C)noc2C)cc(S(=O)(=O)N2CCc3ccccc32)c1OC	0.1	·
COc1ccc(NS(=O)(=O)c2cccc3nsnc23)c(OC)c1	1.4	·
CC1SCC(=O)N(CC(=O)NC2CCCCC2)C1=O (configuration not stated)	1.9	-0.854
COc1ccc(CNC(=O)CCn2c(=S)[nH]c3cc4c(cc3c2=O)OCO4)cc1	2.0	-0.183
Cc1c(C#N)c(O)n(CCCO)c(=O)c1N=Nc1c(C)n(C)n(-c2ccccc2)c1=O	-36.0	-0.443
CC(=O)N1CCC(C(=O)O/N=C(\N)c2ccc(Cl)cc2)CC1	0.9	-1.29
O=C(CCN1C(=O)COc2ccccc21)NCCCN1CCN(c2ccc(F)cc2)CC1	-1.2	-0.748
O=C(COCc1cc(-c2ccco2)on1)NCCc1ccccc1	-1.8	0.491
O=C(O)Cc1coc2cc(O)ccc12	3.9	·
C=CCN(CC=C)S(=O)(=O)c1ccc(/C(O)=C(/C#N)c2nc3ccccc3[nH]2)cc1	-0.1	-0.613
COc1cccc(C(=O)NC(C)C(c2cccs2)N2CCN(C)CC2)c1 (configuration not stated)	-0.3	-1.68
O=C(Cc1c(Cl)cccc1Cl)OCc1ccccn1	-4.1	·
O=C(O)Cn1ccc2ccccc21	-1.2	-0.363
Cc1cc(S(=O)(=O)N2CCN(Cc3ccccc3)CC2)c(C)cc1Cl	·	-1.45
CC(C(=O)Nc1ccccc1)N1C(=O)c2ccccc2C1=O (configuration not stated)	1.6	0.433
CC(=O)OC[C@H]1O[C@@H](Nc2ccc(C)cc2)[C@H](OC(C)=O)[C@@H](OC(C)=O)[C@@H]1OC(C)=O	0.5	·
O=C(CSc1nnc(Cc2ccccc2)o1)N1CCCC1c1ccc2c(c1)OCCCO2 (configuration not stated)	0.2	·
CCCCn1c(C(C)NC(=O)COc2ccccc2)nc2ccccc21 (configuration not stated)	0.6	-0.497
COC(=O)C(C)N1C(=O)S/C(=C/c2ccc(F)cc2)C1=O (configuration not stated)	0.9	0.655
NS(=O)(=O)c1ccc(NC(=O)c2ccccc2C(=O)N2CCCCC2)cc1	2.4	·
COc1ccc(-c2onc(C)c2-c2cnn(-c3ccccc3)c2)c(O)c1	-2.0	·
CC(NC1=CC(=O)OC12CCCCC2)c1ccccc1 (configuration not stated)	0.6	-1.09
C=CCn1cnnc1SCc1cc(F)ccc1OC	-1.1	·

Sorted by SMILES length (smallest number first): part of the list above.
SMILES	BasE inh	LANA-nucl inh
O=C(O)Cn1ccc2ccccc21	-1.2	-0.363
O=C(O)Cc1coc2cc(O)ccc12	3.9	·
C=CCn1cnnc1SCc1cc(F)ccc1OC	-1.1	·
O=C(Cc1c(Cl)cccc1Cl)OCc1ccccn1	-4.1	·
CC(NC1=CC(=O)OC12CCCCC2)c1ccccc1 (configuration not stated)	0.6	-1.09
O=C(COCc1cc(-c2ccco2)on1)NCCc1ccccc1	-1.8	0.491
CC(C(=O)Nc1ccccc1)N1C(=O)c2ccccc2C1=O (configuration not stated)	1.6	0.433
CCCCn1c(C(C)NC(=O)COc2ccccc2)nc2ccccc21 (configuration not stated)	0.6	-0.497
COC(=O)C(C)N1C(=O)S/C(=C/c2ccc(F)cc2)C1=O (configuration not stated)	0.9	0.655
COc1cccc(C(=O)NC(C)C(c2cccs2)N2CCN(C)CC2)c1 (configuration not stated)	-0.3	-1.68
Cc1cc(S(=O)(=O)N2CCN(Cc3ccccc3)CC2)c(C)cc1Cl	·	-1.45
COc1ccc(-c2onc(C)c2-c2cnn(-c3ccccc3)c2)c(O)c1	-2.0	·
NS(=O)(=O)c1ccc(NC(=O)c2ccccc2C(=O)N2CCCCC2)cc1	2.4	·
O=C(CSc1nnc(Cc2ccccc2)o1)N1CCCC1c1ccc2c(c1)OCCCO2 (configuration not stated)	0.2	·
O=C(CCN1C(=O)COc2ccccc21)NCCCN1CCN(c2ccc(F)cc2)CC1	-1.2	-0.748
COc1ccc(CNC(=O)CCn2c(=S)[nH]c3cc4c(cc3c2=O)OCO4)cc1	2.0	-0.183
Cc1c(C#N)c(O)n(CCCO)c(=O)c1N=Nc1c(C)n(C)n(-c2ccccc2)c1=O	-36.0	-0.443
CC(=O)OC[C@H]1O[C@@H](Nc2ccc(C)cc2)[C@H](OC(C)=O)[C@@H](OC(C)=O)[C@@H]1OC(C)=O	0.5	·

Carrying on.
SMILES	BasE inh	LANA-nucl inh
O=S(=O)(NC1CCN(Cc2c(F)cccc2Cl)CC1)c1cccc2nonc12	-0.6	·
Cn1cccc1Cc1nnc(SCC(=O)Nc2ccc3c(c2)OCO3)n1CCc1ccccc1	-1.9	0.309
Cc1ccccc1C(=O)OCC(=O)N(C)c1ccccc1	1.1	·
COC(=O)Nc1ccc(S(=O)(=O)N(CCO)CCO)cc1	-2.0	0.712
CN1CCN(C(=O)/C(=C/c2ccc(N(C)C)cc2)NC(=O)c2ccccc2)CC1	-7.8	0.528
COc1ccc(CN2C(=O)c3cccnc3C2=O)cc1S(=O)(=O)N(C)Cc1ccco1	1.1	·
O=C(COc1ccc(Cl)cc1Cl)Nc1ncccn1	-1.7	0.633
Fc1ccc(C(c2ccc(F)cc2)N2CCN(C/C=C/c3ccccc3)CC2)cc1	3.6&-1.1&-2.4	0.536&-0.459&0.617&0.404&-0.365
N#Cc1c(SCc2ccccc2)nc2sccn12	·	-1.45
O=C(CC1CC2CCC1C2)OCC(=O)c1ccc[nH]1 (configuration not stated)	0.0	·

Some of the compounds tested, so the mix of outcomes need not match the whole.
